Screens deposited in PubChem by several laboratories.
GALR2 ag – agonists of human galanin receptor 2 (GALR2). O43603. GALR2-expressing cells, agonist activation read-out. actives 0.48% (n = 140,000). AID 803. activation, %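 (tested at 5 µM)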;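 active = above mean plus 3 SD of all compounds, about 5% in these data, not always enough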;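 note: 0% = vehicle buffer wells and 100% = reference agonist at full effect; tested in CHO reporter cells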
Target sequence (O43603 whole entry, looked up): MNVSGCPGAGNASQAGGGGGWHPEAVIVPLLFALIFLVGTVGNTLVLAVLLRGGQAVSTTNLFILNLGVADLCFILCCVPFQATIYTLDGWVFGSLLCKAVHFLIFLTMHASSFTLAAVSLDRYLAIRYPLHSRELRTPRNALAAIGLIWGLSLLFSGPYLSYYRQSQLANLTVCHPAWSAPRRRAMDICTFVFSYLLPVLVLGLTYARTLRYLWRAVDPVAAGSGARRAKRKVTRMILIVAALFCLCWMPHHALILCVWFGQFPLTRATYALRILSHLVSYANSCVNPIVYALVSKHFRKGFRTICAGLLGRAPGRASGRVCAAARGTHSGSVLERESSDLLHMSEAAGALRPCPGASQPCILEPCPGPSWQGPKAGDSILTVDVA
RGS16-Gao HTS – RGS16-Galphao interaction regulator (human). bead-based flow cytometry RGS16-Galphao binding, fluorescence; actives lie on both sides. binding response (% of control), % at 10 µM. actives 0.38% (n = 220,000). AID 1441;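 active = below 25% or above 175%, edge rows of some plates excepted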;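 note: Galphao activated by GDP with aluminum fluoride before binding; 100% = wells without compound and 0% = beads without RGS; some results beyond the cut were filed as inactive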
Target sequence (O15492 whole entry, looked up): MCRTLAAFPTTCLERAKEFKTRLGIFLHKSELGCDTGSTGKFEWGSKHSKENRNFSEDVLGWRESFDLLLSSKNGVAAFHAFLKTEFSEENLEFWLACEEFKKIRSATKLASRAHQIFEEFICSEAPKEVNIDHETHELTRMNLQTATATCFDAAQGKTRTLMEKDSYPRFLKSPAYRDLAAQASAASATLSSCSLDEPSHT
Target sequence (P09471 whole entry, looked up): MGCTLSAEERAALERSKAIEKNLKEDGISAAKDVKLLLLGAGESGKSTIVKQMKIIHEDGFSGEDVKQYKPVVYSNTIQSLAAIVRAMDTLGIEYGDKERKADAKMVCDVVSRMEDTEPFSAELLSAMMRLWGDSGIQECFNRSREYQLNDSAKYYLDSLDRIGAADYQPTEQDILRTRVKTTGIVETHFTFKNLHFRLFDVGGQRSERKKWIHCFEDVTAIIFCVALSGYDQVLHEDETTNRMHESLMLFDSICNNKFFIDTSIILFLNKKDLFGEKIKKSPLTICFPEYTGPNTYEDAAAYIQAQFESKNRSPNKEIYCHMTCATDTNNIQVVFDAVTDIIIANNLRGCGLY
HSV augment – HSV replication enhancement; HSV replication augmentation in cells, fold increase; AID 1956; maximum fold increase; actives 0.005% (n = 220,000);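 active = peak rise of 1.5-fold or more in the series; inconclusive = self-fluorescent or not available for retest; tested in PC3 cells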;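 note: first round at 10 µM; read as green reporter fluorescence; hits show the peak of a series up to 25 µM; 1 = signal of infected wells without compound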
PKD1 inh – inhibitors of human PKD1 kinase; actives 0.056% (n = 200,000); Q15139; inhibition, %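 (about 10 µM by stock and volumes)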; AID 797; PKD1 kinase fluorescence polarization assay;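 active = inhibition of 50% or more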;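 note: controls were vehicle for no effect and a reference inhibitor for full effect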
Insulin prom inh – TRM-6 insulin promoter activity inhibition | TRM-6 cells (human fetal islet line), insulin promoter-eGFP reporter, imaging; reporter expression induced with tamoxifen | inhibition, % at 2 µM | actives 0.9% (n = 130,000) | AID 1273;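 active = inhibition above the mean plus 3 SD, with well images judged a real hit on visual review, cut at about 60% in these data, passing the limit was not always enough; inconclusive = inhibition over the cutoff but images rejected on review; inactive = inhibition not above the cutoff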
Insulin prom inh cell count – second read-out of Insulin prom inh, no call of its own (marks repeat the call); normalized cell count, %; measured here: cell count, toxicity; reference of the scale not given here;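 cells exposed to compound for 48 h; stained nuclei by imaging scaled within each plate; lower means fewer cells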
HSV augment primary fold – also measured in HSV augment; calls as there; fold increase; compound at 10 µM; measured here: primary screen fold increase 10 uM; tested in PC3 cells;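 GFP signal in the first replicate; 1 = infected wells without compound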
An asterisk follows results filed as active; i = inactive; ? = inconclusive; nt = no result given; & = joins results of further samples.

SMILES | GALR2 ag | RGS16-Gao HTS | HSV augment | HSV augment primary fold | PKD1 inh | Insulin prom inh | Insulin prom inh cell count
CCC1=C2CC[C@H]3C(=O)N(CC)C(=O)[C@H]3[C@H]2[C@@]2(Cc3ccccc3)C(=O)N(Cc3ccccc3)C(=O)N2C1=O | nt | 101 | i | 0.84 | nt | nt | nt
Cc1ccc(S(=O)(=O)N2CCC(C(=O)OCc3ccc([N+](=O)[O-])cc3)CC2)cc1 | -0.1 | 97 | i | 0.87 | 5 | -17 | 111
Cc1noc(C)c1S(=O)(=O)N1CCC(C(=O)N(C)Cc2ccccc2)CC1 | -1.5 | 101 | i | 0.85 | 3 | 4 | 122
CC1CCN(c2nc3ccc(C(=O)N4CCN(Cc5ccccc5)CC4)cc3s2)CC1 | -2.7 | 112 | i | 0.96 | 6 | nt | nt
COc1ccc(C(C)=O)cc1CSc1nnc2c(Cl)cc(Cl)cn12 | 0.2 | 103 | i | 0.94 | -9 | 7 | 152
COCCNC(=S)Nc1ccc(S(=O)(=O)Nc2cnc3ccccc3n2)cc1 | nt | 103 | i | 1.1 | -1 | nt | nt
O=C(NCc1ccccn1)c1ccco1 | nt | 104 | i | 1 | -11 | -142 | 56
COc1ccc(/C=C/C(=O)OCCNC(=O)c2ccncc2)cc1OC | nt | 98 | i | 0.93 | -7 | -27 | 92
C=CCc1ccccc1OCC(O)Cn1ccnc1C (centres undefined) | -0.5 | 101 | i | 1.6 | -1 | nt | nt
CSc1oc(-c2ccco2)nc1S(=O)(=O)c1ccc(Br)cc1 | -0.8 | 100 | i | 0.91 | 4 | nt | nt
CC1(C)Cc2ccccc2-c2nnc(SCC(=O)N3CCN(c4ccccc4)CC3)n21 | -2.2 | 105 | i | 0.97 | 16 | -33 | 150
CC(C)C(NC(=O)c1ccco1)C(=O)OCc1cc([N+](=O)[O-])cc2c1OCOC2 (centres undefined) | nt | 104 | i | 0.93 | -2 | nt | nt
COc1ccc2[nH]c(C(=O)Nc3ccc4c(c3)OCO4)cc2c1 | nt | 100 | i | 1 | nt | nt | nt
CN=C(Nc1ccc(Cl)cc1)c1ccc(C(F)(F)F)cc1 | 0.0 | 149 | i | 0.61 | -17 | 7 | 101
N#CCc1c(C#N)c(N)nc(N2CCCC(CO)C2)c1C#N (centres undefined) | nt | 108 | i | 0.94 | 2 | nt | nt
COC(=O)CN(n1cnnc1)S(=O)(=O)c1ccccc1Cl | 0.0 | 96 | i | 0.94 | 0 | -48 | 44
O=C(Nc1ccccc1)C1CC(=O)N(c2ccc3c4c(cccc24)CC3)C1 (centres undefined) | -0.8 | 94 | i | 0.86 | -8 | 50 | 77
Oc1c(Br)cc2oc3c(c2c1CNCc1ccccc1)CCCC3 | -1.4 | 91 | i | 0.92 | -3 | -27 | 60
Cc1cccc(N(CC(=O)NCc2ccco2)C(=O)CCC(=O)Nc2nccs2)c1 | nt | 108 | i | 0.86 | 6 | nt | nt
O=C(OC[C@@H]1CCCN2CCCC[C@H]12)c1cc2ccccc2oc1=O | -3.4 | 82 | i | 1.1 | -6 | -36 | 80
COCCSc1nnc(NS(=O)(=O)Cc2ccccc2)s1 | -2.6 | 103 | i | 0.95 | 6 | 12 | 123
Cc1cc(=O)[nH]c(N/N=C/C=C/c2ccccc2)n1 | nt | 104 | nt | nt | -3 | -7 | 92
COc1ccc(/C=C2\C(=O)N(c3nc(-c4ccc(Br)cc4)cs3)N=C2c2ccccc2)cc1 | -2.0 | nt | nt | nt | -3 | -42 | 238
COc1cc(-c2cc(N3C(=O)Nc4ccccc4N3O)n[nH]2)cc(OC)c1OC | -0.1 | 110 | i | 0.89 | -2 | 12 | 115
CC[N+](C)(C)Cc1ccccc1Br | -0.9 | 102 | i | 0.6 | -10 | -29 | 159
CN(C)CCN(Cc1ccccc1)c1ccccn1 | -1.4 | 99&94 | i | 0.79 | -5 | 48 | 129
CN(CC(=O)NCc1cccc(F)c1)C(=O)c1ccco1 | 0.2 | 103 | i | 0.93 | 14 | nt | nt
CCOC(=O)C1CCCN(S(=O)(=O)c2ccccc2)C1 (centres undefined) | -3.5 | 99 | i | 0.88 | 0 | -9 | 66
C[C@]12C[C@H](O)[C@@H]3c4ccc(O)cc4CCC3[C@@H]1CCC2=O (some centres undefined) | nt | 91 | i | 0.96 | nt | nt | nt
CCOC(=O)c1c(C)[nH]c(C=Nc2ccc(OC)cc2)c1O | -1.3 | 108 | i | 1 | -6 | 56 | 15
Cc1cccc(-c2nc(CSCC(=O)N3CCN(Cc4ccc5c(c4)OCO5)CC3)c(C)o2)c1 | -0.4 | 98 | nt | nt | -2 | nt | nt
c1csc(C2Nc3ccccc3-c3nc4ccccc4n32)c1 (centres undefined) | 0.1 | 105 | i | 0.81 | -12 | 40 | 108
CC(C)C1OC2c3cccc4cccc(c34)C2N1c1ccccc1 (centres undefined) | -0.3 | 76 | i | 1.1 | -2 | 50 | 181
COCCn1c(SCC(=O)Nc2cc(C)on2)nnc1-c1ccco1 | -1.2 | 107 | i | 1 | -4 | -3 | 94
Cc1cccc2cc(CN(Cc3ccco3)C(=O)c3cccs3)c(=O)[nH]c12 | -1.1 | 104 | i | 0.97 | 2 | 3 | 101
CN(C)c1ccc(/C=C(/C#N)C(=O)NCc2ccccc2)o1 | -1.9 | 100 | ? | nt | 0 | -227 | 54
NC(=O)c1ccc(C(F)(F)F)n(Cc2ccc(Cl)cc2)c1=O | -1.6 | 102 | i | 0.92 | -8 | nt | nt
Cc1ccc(S/C=C\C(=O)c2ccccc2)cc1 | -1.9 | 105 | i | 0.89 | -6 | -29 | 106
O=C(COc1nc2ccccc2nc1N1CCOCC1)N1CCc2ccccc21 | -1.0 | 111 | i | 0.94 | -7 | 3 | 113
COc1ccc(OCC(=O)NNC(=O)C(=O)N2CCCC2)cc1 | -0.6 | 76 | i | 0.99 | -5 | 13 | 114
Cc1ccc2c(c1)CC1(CN2C)C(=O)OC(C)(C)OC1=O | -1.5 | 84 | i | 1 | -2 | 21 | 121
CCOC(=O)CNC(=O)c1cn(CC)c(=O)c2cc(OC)c(OC)cc12 | -0.7 | 95 | i | 0.88 | -11 | nt | nt
CC(=O)N1CCN(S(=O)(=O)c2c(F)cc(F)c(Cl)c2F)CC1 | nt | 98 | i | 0.97 | -5 | nt | nt
Cc1cccc(N2CCN(C(=S)Nc3ccc4nc(N5CCN(C)CC5)cc(C)c4c3)CC2C)c1 (centres undefined) | nt | 103 | i | 0.69 | 1 | nt | nt
COc1ccc(NC2CS(=O)(=O)CC2NCc2ccco2)cc1 (centres undefined) | -0.6 | 100 | i | 1 | -2 | -26 | 120
O=C(CCN1C(=O)c2ccc([N+](=O)[O-])cc2C1=O)Nc1cccc(O)c1 | -0.6 | 101 | i | 1.1 | -5 | nt | nt
CN(C)S(=O)(=O)c1ccccc1N=C=S | nt | 90 | i | 1 | nt | nt | nt
Cc1ccc2c(c1)N(CCC(=O)NC(C)C)C(=O)CO2 | -2.3 | 101 | i | 1.1 | 4 | -38 | 106
COc1ccc(-c2nc(C(N)=O)c3[nH]c(=O)n(-c4ccccc4OC)c3n2)c(OC)c1 | 0.2 | 98 | i | 0.78 | 8 | nt | nt
Cc1nc2ccccc2n1CCOc1ccc([N+](=O)[O-])cc1 | nt | 106 | i | 0.95 | 7 | nt | nt
COc1ccc(N(CC(=O)Nc2cccc(N(C)S(C)(=O)=O)c2)S(=O)(=O)c2ccccc2)cc1Cl | nt | 102 | i | 0.85 | -6 | nt | nt
CCOc1ccccc1NC(=O)c1ccc2nccnc2c1 | -0.2 | 109 | i | 0.85 | -7 | 26 | 92
N#Cc1ncn(-c2ccc(Oc3ccccc3)cc2)c1N | nt | 94 | i | 1 | -6 | nt | nt
O=c1[nH]c2cccc(Cl)c2n(CCNc2ncc(C(F)(F)F)cc2Cl)c1=O | 0.2 | 100 | i | 0.94 | 8 | -66 | 73
COC(=O)Cn1cnc2ccccc2c1=O | -1.9 | 99 | i | 0.91 | -2 | -17 | 109
Cc1ccc(N2CC(C(=O)NCc3ccccn3)CC2=O)cc1 (centres undefined) | -2.2 | 107 | i | 0.9 | -5 | 33 | 89
O=C(CCC1COc2ccccc2O1)N1CCCC1 (centres undefined) | -3.6 | 94 | i | 1 | 5 | 15 | 82
Cc1cc(Cl)n2nc(C)c(-c3ccc(Cl)cc3)c2n1 | nt | 101 | i | 0.62 | -5 | nt | nt
COc1ccccc1N(CC(=O)NCCC1=CCCCC1)S(=O)(=O)c1ccccc1 | nt | 93 | i | 1.2 | 0 | -119 | 35
O=C(N/N=C/C=C/c1ccco1)c1cccc([N+](=O)[O-])c1 | -0.9 | 102 | i | 0.81 | -9 | nt | nt

4 compounds drawn at random from those above:
SMILES | GALR2 ag | RGS16-Gao HTS | HSV augment | HSV augment primary fold | PKD1 inh | Insulin prom inh | Insulin prom inh cell count
COC(=O)Cn1cnc2ccccc2c1=O | -1.9 | 99 | i | 0.91 | -2 | -17 | 109
Cc1cc(Cl)n2nc(C)c(-c3ccc(Cl)cc3)c2n1 | nt | 101 | i | 0.62 | -5 | nt | nt
O=c1[nH]c2cccc(Cl)c2n(CCNc2ncc(C(F)(F)F)cc2Cl)c1=O | 0.2 | 100 | i | 0.94 | 8 | -66 | 73
COc1ccc(N(CC(=O)Nc2cccc(N(C)S(C)(=O)=O)c2)S(=O)(=O)c2ccccc2)cc1Cl | nt | 102 | i | 0.85 | -6 | nt | nt

More compounds
SMILES | GALR2 ag | RGS16-Gao HTS | HSV augment | HSV augment primary fold | PKD1 inh | Insulin prom inh | Insulin prom inh cell count
COc1cc(/C=N/NC(=O)C(=O)NCc2ccco2)cc(Cl)c1O | nt | 100 | i | 1.1 | nt | nt | nt
C=CCOC(=O)c1sc(NC(=O)c2ccco2)nc1C | 0.2 | 106 | i | 0.93 | -13 | 6 | 106
Cc1ccc(COn2c(-c3ccc(Cl)cc3Cl)nc3ncccc32)cc1 | -1.7 | 106 | i | 0.93 | -2 | -28 | 96
CCc1ccc(N2C(=O)C3ON(c4ccccc4)C(c4ccco4)C3C2=O)cc1 (centres undefined) | -0.1 | 109 | i | 0.93 | 11 | 38 | 95
OC(c1ccc2c(c1)OCO2)c1nccc2ccccc12 (centres undefined) | -1.8 | 98 | i | 0.93 | 1 | nt | nt
CCSc1nc(-c2ccccc2)nc(C(Cl)Cl)n1 | 7.6* | 103 | i | 0.57 | 0 | 14 | 112
Cc1nc2c(C(=O)N3CCN(C)CC3)cnn2c(C)c1Cc1ccc(Cl)cc1 | -0.9 | 103 | i | 0.99 | 3 | nt | nt
Cc1nnc(N/N=C/c2ccc([N+](=O)[O-])cc2)n1N | nt | 133 | i | 0.67 | 3 | nt | nt
O=C(c1ccc(F)cc1)N1CCN(c2ccc([N+](=O)[O-])cc2-n2cccc2)CC1 | nt | 96 | i | 0.88 | nt | nt | nt
N#CC1=C(N)Oc2c(oc(CO)cc2=O)C1c1cccs1 (centres undefined) | -1.0 | 107 | ? | nt | -8 | nt | nt
O=C(CCC(=O)OCC(=O)c1ccccc1)NC1CCCCC1 | -1.1 | 101 | i | 0.98 | -5 | -24 | 162
Cc1ccc(-c2nc(-c3ccccc3)no2)c(Cl)c1 | -3.8 | 108 | i | 0.95 | -9 | nt | nt
COc1ccccc1Nc1nc(N)nc(CSC(=S)N2CCC(C)CC2)n1 | -0.3 | 103 | i | 0.77 | -2 | nt | nt
COc1ccc(Br)cc1/C=N/NC(=O)CNC(=O)/C=C/c1ccccc1 | 0.2 | 104 | i | 0.97 | -5 | 30 | 94
O=[N+]([O-])c1ccc(Sc2cccc[n+]2[O-])c2nonc12 | nt | 3.0* | ? | nt | nt | nt | nt
Cc1cc(=O)[nH]c(SCC(=O)N2CCN(S(=O)(=O)c3ccccc3)C2)n1 | nt | 99 | i | 1 | -5 | nt | nt
COc1cccc(N=Cc2c[nH][nH]c2=O)c1 | -3.5 | 113 | i | 0.91 | -1 | -4 | 105
CCCOc1ccc(-c2nnn(CC(=O)Nc3cccc(C(=O)OC)c3)n2)cc1 | nt | 97 | i | 0.75 | nt | nt | nt
CCc1cc2c(=O)n(-c3ccc(Br)cc3)cnc2s1 | -1.1 | 107 | i | 0.93 | -1 | 59 | 58
Cc1cccc(/C=C(\C(=O)C(=O)O)c2ccc3ccccc3n2)c1 | nt | 101 | i | 0.81 | 3 | nt | nt
COc1ccc(CCNC(=O)CNC(=O)Cn2ccc3ccccc3c2=O)cc1OC | nt | 97 | i | 1 | nt | nt | nt
c1ccc(N2CCOCCOCCOCCOCC2)cc1 | nt | 95 | i | 1 | nt | nt | nt
CCCn1c(=O)c2ccccc2n2c(SCc3nc4ccccc4s3)nnc12 | 0.2 | 96 | i | 0.86 | -5 | 15 | 182
